OX1R antag – antagonists of human orexin 1 receptor (OX1R); 1.8% of 330,000 active; AID 485270, 2010; OX1R-expressing cells, FRET antagonist read-out; inhibition, % at 6.6 µM; Orexin/Hypocretin receptor type 1 (Homo sapiens), O43613; in the data active = inhibition mostly above about 38%, no sharp cut-off; inactive = mostly below about 40%;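 also: 0% = agonist challenge alone and 100% = reference antagonist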
Target sequence (O43613 whole entry, looked up): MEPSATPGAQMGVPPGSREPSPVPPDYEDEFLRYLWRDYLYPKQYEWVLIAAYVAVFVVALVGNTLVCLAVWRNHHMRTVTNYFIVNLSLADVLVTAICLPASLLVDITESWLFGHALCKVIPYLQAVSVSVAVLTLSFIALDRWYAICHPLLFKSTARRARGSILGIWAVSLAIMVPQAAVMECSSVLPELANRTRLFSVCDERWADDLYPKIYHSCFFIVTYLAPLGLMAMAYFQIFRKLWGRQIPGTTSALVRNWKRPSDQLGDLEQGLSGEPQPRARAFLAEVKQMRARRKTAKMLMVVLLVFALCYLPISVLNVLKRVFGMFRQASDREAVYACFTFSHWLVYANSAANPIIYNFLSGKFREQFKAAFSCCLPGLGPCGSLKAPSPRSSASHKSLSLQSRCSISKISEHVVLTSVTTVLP
An asterisk follows results filed as active. This is a subset, and most or all hits are left out here.

Molecule | OX1R antag
O=C(NNS(=O)(=O)c1ccccc1)c1cccc(F)c1 | 4
CC(C)CNC(=O)c1nc(-c2ccccc2)n(-c2ccccc2)n1 | 16
CCOC(=O)CN1N=C(c2ccc(C)cc2)CCC1=O | -1
COCc1cc(=O)[nH]c(SCC(=O)c2ccccc2)n1 | 2
Cc1cccc(NCc2cccc3ccccc23)n1 | 11
CC(C)C/C(O)=C/c1nc2cc(Cl)ccc2oc1=O | 14
CCOC(=O)C(NC(C)=O)C(OC(C)=O)c1cccc([N+](=O)[O-])c1 (configuration not stated) | 24
O=C(Nc1cccc(C(F)(F)F)c1)c1cccc(NS(=O)(=O)c2ccc(Br)c(C(=O)O)c2)c1 | 3
CC(C)NC(=O)C(Cc1ccccc1)N1C(=O)c2ccccc2C1=O (configuration not stated) | 13
COc1ccc(-c2nc(CSCC(=O)NCCCN3CCCC3=O)c(C)o2)cc1 | 7
NC(=O)[C@H](Cc1cc2ccccc2s1)NC(=O)[C@@H]1CC2(CC(c3cccc(NC(=O)[C@@H]4CCC(=O)N4)c3)=NO2)CN1C(=O)/C=C/Sc1ccccc1 (some centres not stated) | 24
O=C(Nc1ccc2c(c1)OCCO2)c1cccc2nc3ccccc3nc12 | 17
Cn1nnnc1SCC(=O)Nc1ccccc1N1CCCCC1 | 30
CCN(CC)c1ccc(C(=O)NC(=S)Nc2cc(S(=O)(=O)N3CCOCC3)ccc2-n2cncn2)cc1 | 10
CCOc1ccc2nc(NC(=O)Nc3cccs3)sc2c1 | 17
Cn1c(=NC(=O)C(C)(C)C)sc2cccc(F)c21 | 12
O=C(O)C1CC(O)CN1c1nc(Cl)ccc1[N+](=O)[O-] (configuration not stated) | 73
CSc1nnc(-c2ccco2)n1-c1ccccc1 | -3
COc1ccc(Nc2ncnc3ccccc23)cc1 | 26
CCc1nc2c(cnn2-c2ccc(Cl)cc2)c(=O)n1-c1ccc2c(c1)OCCO2 | 14
O=C(Nc1ccc(N2CCN(C(=O)c3ccco3)CC2)c(Cl)c1)c1cccnc1 | 13
O=C(NCCCN1CCOCC1)c1ccc(S(=O)(=O)Nc2cccc(C(F)(F)F)c2)cc1 | 10
Cc1nn(C(=O)Cn2ccc([N+](=O)[O-])n2)c(C)c1Cl | 6
CC(C)(C)OC(=O)N1CCCN(C(=O)Nc2ccc(C(F)(F)F)cc2)CC1 | -1
Cc1ccc(C(C(=O)NCC2CCCO2)N(C(=O)c2snc(C(N)=O)c2N)c2ccc(C(C)C)cc2)o1 (configuration not stated) | 16
CCOC(=O)N1CCN(C(=O)c2ccc3c(SCC(=O)O)c4c(nc3c2)CCC4)CC1 | 6
O=C(CCc1nc2ccccc2[nH]1)Nc1ccc(F)cc1 | 8
COc1ccc(CC(=O)NNC(=O)c2cccs2)cc1OC | 8
CCOC(=O)c1cc(NC(=O)N(CC)C2CCCCC2)c(C)nc1C | 17
C=CCn1c(SCC(=O)N2CCN(c3ccccc3)CC2)nc2c([nH]c3ccccc32)c1=O | 19
CCOc1ccc(S(=O)(=O)N2CCCC(C(=O)NCC3CCCO3)C2)cc1Cl (configuration not stated) | 20
Cc1nc2sc(C(c3ccco3)N3CCC(C)CC3)c(O)n2n1 (configuration not stated) | 4
COc1ccc(OCC(=O)N/N=C(\C)c2cccs2)cc1 | 3
O=C(O)c1ccc(Cn2cnc3sc4c(c3c2=O)CCCC4)cc1 | 13
O=C(COc1ccccc1C(=O)NCC1CCCO1)Nc1ccc(Cl)cc1Cl (configuration not stated) | 27
Cc1ccc(S(=O)(=O)NCCCNC(=O)c2ccccc2)cc1 | 5
O=S1(=O)CC(O)C(N2CCC(c3ccccc3)CC2)C1 (configuration not stated) | 18
O=C1c2ccccc2C(Nc2ccc(S(=O)(=O)N3CCOCC3)cc2)N1c1ccccn1 (configuration not stated) | -2
COCCNC(=O)NC1(C(F)(F)F)Oc2ccc(Cl)cc2O1 (configuration not stated) | 5
COc1ccc(S(=O)(=O)Nc2cccc(-n3cnnn3)c2)cc1OC | 5
C=CCNC(=O)CSc1nnc(-c2cccs2)o1 | 2
COc1ccc(CCN2C(=O)CC(C(N)=O)SC2=Nc2ccc(F)cc2)cc1OC (configuration not stated) | 13
CCN(c1ccccc1)S(=O)(=O)c1cccc(C(=O)OCc2nc3sc(C)c(C)c3c(=O)[nH]2)c1 | 18
CCOc1ccc(N(C(C)C(=O)NN=C2CCCCCCC2)S(C)(=O)=O)cc1 (configuration not stated) | 0
COCCn1c(SCC(=O)NNC(=O)c2ccccc2)nc2ccccc2c1=O | 19
COc1ccc(C)cc1S(=O)(=O)N(C)CC(N)=O | 16
CCOC(=O)C1(Cc2cccc(F)c2)CCN(C(=O)Cn2cnnn2)CC1 | 2
N/C(Cc1ccc(Cl)cc1)=N\OC(=O)c1ccc2ccccc2c1 | 20
CCOc1ccc(-c2c(=O)n(OCc3ccccc3Br)c3ccccc3[n+]2[O-])c(OCC)c1 | 8
Cc1cc(OCc2nc(-c3ccc(NC(=O)c4cccnc4)cc3)no2)ccc1Cl | 9
O=C(c1ccc(Cl)c(Cl)c1)N1CCC(=O)N(C(COCc2ccccc2)Cc2ccccc2)CC1 (configuration not stated) | 9
CCn1ncc(C2=NOC(C(=O)Nc3c(C)n(C)n(-c4ccccc4)c3=O)C2)c1C (configuration not stated) | 6
CC1CCN(C(=O)CSc2nc(N)c(NC(=O)c3ccccc3)c(=O)[nH]2)CC1 | 35
CCC(CC)C(=O)c1c[nH]c(C(=O)NCc2cccnc2)c1 | 25
COc1ccc(/C=N/NC(=O)c2cccc(Br)c2)cc1Cn1cc(Cl)cn1 | 49
O=C(O)CC(NS(=O)(=O)c1ccc(Br)cc1)c1ccco1 (configuration not stated) | 8
COc1ccc(C2N=C(N)N=C(N)N2c2ccc(C)cc2)cc1 (configuration not stated) | 23
Cc1noc(C)c1S(=O)(=O)N(CC(=O)O)c1ccc2c(c1)OCO2 | 0
CN(C)S(=O)(=O)N1CCc2ccccc2C1 | 5
Cc1ccc(N2C(=O)C3CCCN3C2=S)cc1Cl (configuration not stated) | 18

Continuation:
Molecule | OX1R antag
Cc1ccc(C2=CC(c3ccccc3)n3ncnc3N2)cc1 (configuration not stated) | 48
COc1cccc(N2CCN(C(=O)c3cccnc3)CC2)c1 | 4
CC(C)(C)c1cc(CNC2CS(=O)(=O)C[C@@H]2O)cc(C(C)(C)C)c1O (some centres not stated) | -3
Cc1ccc(C23CC4CC(CC(NC(=O)NC(C)(C)CO)(C4)C2)C3)cc1 | 7
CCN(CCCNC(=O)c1[nH]c(C)c(C(C)=O)c1C)c1ccccc1 | 44
NC(Cc1ccc2nonc2c1)C(=O)O (configuration not stated) | 18
CCOC(=O)C1CCN(C(=O)c2ccc(OC)cc2OC)CC1 | 0
Cc1ccc([N+](=O)[O-])cc1N(CC(=O)NC1CCCC1)S(C)(=O)=O | 15
CC(OC(=O)Cc1ccc(Br)cc1)C(=O)NC1CCCCC1C (configuration not stated) | 9
S=c1[nH]nc(C2CCCCC2)n1Cc1ccccc1 | 10
CC(=O)c1ccc(OC(=O)c2cc3ccccc3oc2=O)cc1 | 5
Cc1nc2nc(C)c(CCC(=O)NCCC3=CCCCC3)c(C)n2n1 | 16
CC1CC(C)CN(C(=O)COC(=O)Cc2ccc(Cl)cc2)C1 (configuration not stated) | 6
CCOC(=O)c1c(O)c2c(n(Cc3ccco3)c1=O)CCCC2 | -2
CCOC(=O)C1(CCc2ccccc2)CCN(Cc2c(O)cccc2OC)CC1 | 8
Cc1ccccc1OCC(=O)N(Cc1cccc(F)c1)C1CCS(=O)(=O)C1 (configuration not stated) | 9
O=C(Nc1cccc(C(F)(F)F)c1)c1cccnc1N1CCN(CCO)CC1 | 8
Cc1ccc(S(=O)(=O)N2CCCC2C(=O)NCCc2nc3ccccc3[nH]2)cc1 (configuration not stated) | 8
CCOC(=O)CSc1nc2cccnc2n1-c1ccc(F)cc1 | -1
CN(C)CCCn1c(=S)[nH]c2sc3c(c2c1=O)CCCC3 | 15

Looked up one by one from the list above:
Molecule | OX1R antag
O=C1c2ccccc2C(Nc2ccc(S(=O)(=O)N3CCOCC3)cc2)N1c1ccccn1 (configuration not stated) | -2
CC(C)C/C(O)=C/c1nc2cc(Cl)ccc2oc1=O | 14
CCOc1ccc(N(C(C)C(=O)NN=C2CCCCCCC2)S(C)(=O)=O)cc1 (configuration not stated) | 0
Cn1c(=NC(=O)C(C)(C)C)sc2cccc(F)c21 | 12
COc1ccc(C2N=C(N)N=C(N)N2c2ccc(C)cc2)cc1 (configuration not stated) | 23
Cc1ccc(C2=CC(c3ccccc3)n3ncnc3N2)cc1 (configuration not stated) | 48
Cc1noc(C)c1S(=O)(=O)N(CC(=O)O)c1ccc2c(c1)OCO2 | 0

Later entries.
Molecule | OX1R antag
O=C(Cc1c(F)cccc1Cl)N1CCCC1 | 19
CC(C)(C)n1nnnc1C(c1ccc(Cl)cc1)N(Cc1cccnc1)Cc1ccco1 (configuration not stated) | 14
CN(C)S(=O)(=O)c1cc(NC(=O)CN2CCN(c3ccc(O)cc3)CC2)ccc1Cl | 3
CCOC(=O)C1(Cc2ccccc2C(F)(F)F)CCN(C2CCCC2)CC1 | 16
CCCNC(=S)N1CCC(NC(=O)C23CC4CC(CC(C4)C2)C3)CC1 | 7
COc1ccc([N+](=O)[O-])cc1NC(=O)CSCc1ccccc1 | 17
O=C1COc2ccc(C(=O)c3ccccc3C(=O)NCc3ccccc3)cc2N1 | 9
COc1cccc(CNC(=O)CCCCCNC(=O)N2CCn3c2nc2ccccc23)c1 | 26
COc1ccc(NS(=O)(=O)c2c(C(=O)N3CCCCCC3)c(C)n(C)c2C)cc1 | 11
CC1(C(=O)OCc2cc(=O)n3cc(Br)ccc3n2)CC1(Cl)Cl (configuration not stated) | 80
O=S(=O)(c1cccc(S(=O)(=O)N2CCCC2)c1)c1cccc(S(=O)(=O)N2CCCC2)c1 | 13
O=C(NCCN1CCOCC1)c1ccc(NC(=O)C2COc3ccccc3O2)cc1 (configuration not stated) | 24
CN(C)/C=N/c1sc2c(c1C(N)=O)CCCC2 | 17
COc1ccc(N(C(=O)c2snc(C(N)=O)c2N)C(C(=O)NCC2CCCO2)c2ccc3ncccc3c2)cc1OC (configuration not stated) | 23
CCCCn1c(=O)cc(C)n(-c2ccccc2)c1=O | 2
Cc1nn(-c2ccccc2)c2nc(N)c(C#N)c(-c3ccc(C(C)(C)C)cc3)c12 | -3
CCCc1nnc(NC(=O)CCS(=O)(=O)Cc2ccccc2)s1 | 15
CCN=c1scc(-c2ccco2)n1/N=C/c1ccc(OC)c(O)c1 | 6
O=c1[nH]cnc2nc3n(c12)CCCCC3 | 16
CCn1cc(Br)c(C(=O)Nc2ccc(OC)cc2)n1 | 19
CCc1nnc(NC(=O)c2ccc(S(=O)(=O)NCC(C)C)cc2)s1 | 21
N#Cc1cc([N+](=O)[O-])ccc1NCCCn1ccnc1 | 54
COc1ccc(NS(=O)(=O)c2cc(NC(=O)c3cnc(C)cn3)ccc2N2CCCCC2)cc1 | 18
Cc1ccc(NC(=O)CN2CCc3ccccc3C2)cc1F | 8
O=C(CCC(=O)N1CCOc2ccc(Cl)cc21)NCCCN1CCC(Cc2ccccc2)CC1 | 14
COc1cccc2cc(C(=O)NCCN3CCOCC3)oc12 | 9
COC1CCN(C(=O)c2ccc3oc(Cc4ccc(Cl)cc4)nc3c2)CC1 | 10
COc1cccc(C(=O)NC(=S)Nc2ccc([N+](=O)[O-])cc2C)c1 | 2
COc1ccc(C(NC(=O)c2cccc(F)c2)c2ccccc2)cc1 (configuration not stated) | 24
Cc1c(NC(=O)C(C)Sc2ccccc2)c(=O)n(-c2ccccc2)n1C (configuration not stated) | 34
O=C(Nc1ccccc1)N1C2CCC1CC(O)(c1cccnc1)C2 (configuration not stated) | 11
CCOc1ccccc1-c1ccc(C(=O)NCc2ccccc2)o1 | 41
COc1cccc(OC)c1OCCCCN1CCCC1 | 28
CCN(CC)S(=O)(=O)c1cccc(-c2nnc(SCC(=O)c3cc(C)n(C)c3C)o2)c1 | 18
c1ccc2c(-n3cccn3)cccc2c1 | 1
CCCCn1c(SCC(=O)N2CCC(C(=O)OCC)CC2)nc2cc(S(N)(=O)=O)ccc21 | 9
COc1cccc(NC(=O)CC(=O)c2ccc([N+](=O)[O-])cc2)c1 | 16
CCOc1ccccc1N(CC(=O)Nc1ccc(C)cc1)S(C)(=O)=O | 12
O=C(CN1CCN(CCC(=O)Nc2ccccc2F)CC1)Nc1ccc(Cl)cc1 | 5
Cc1cc(C)nc(N2CCN(c3nnnn3-c3ccccc3)CC2)n1 | 14

A few values from the results shown:
OX1R antag with `O=C(c1ccc(Cl)c(Cl)c1)N1CCC(=O)N(C(COCc2ccccc2)Cc2ccccc2)CC1` (configuration not stated) reads 9
OX1R antag with `Cn1nnnc1SCC(=O)Nc1ccccc1N1CCCCC1` reads 30

The list goes on.
Molecule | OX1R antag
Cc1ccc(C(=O)NNC(=O)C2CCN(Cc3ccc(Cl)c(Cl)c3)CC2)cc1 | 16
c1cn2cc(-c3ccc4c(c3)OCO4)nc2s1 | 7
O=C(CN(Cc1ccc(F)cc1)S(=O)(=O)c1ccc(S(=O)(=O)N2CCOCC2)cc1)Nc1ccccc1 | -3
COc1ccc(N2CCN(C(=O)CCNS(=O)(=O)c3ccccc3)CC2)cc1 | 10
CC(NC=O)c1nc2ccccc2n1CCc1ccccc1 (configuration not stated) | 11
C=CCOc1cccc(C2/C(=C(/O)c3ccc(F)cc3)C(=O)C(=O)N2CCN2CCOCC2)c1 (configuration not stated) | 22
O=C(Cc1ccccc1)Nc1nc(=O)c2ccccc2s1 | 19
CCSc1n[nH]c(=O)[nH]c1=O | 6
O=C1C(=O)N(Cc2ccccc2)C(c2cccc(O)c2)/C1=C(\O)c1ccc2c(c1)OCCO2 (configuration not stated) | 8
O=c1cc(CO)oc(CN2CCN(c3ccccc3)CC2)c1O | 36

Screens (PubChem BioAssay)
